YopH inh: YopH (Yersinia) phosphatase inhibition | fluorescence Ex485/Em525 | inhibition, %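 (about 10 µM by stock and volumes)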 | 140,000 compounds, 0.16% hits;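 active = inhibition of 50% or more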;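 also: controls were vehicle for no effect and minimum signal wells for full effect; inactives centre near -20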
Arbovirus inh: antivirals against arbovirus infection; arbovirus infection cell-based antiviral screen; 200,000 compounds, 0.37% hits; inhibition, % at 10 µM;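 active = inhibition from about 30%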;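 also: bluetongue infection of BSR cells; cell survival read as ATP light after 72 h; 0% = infected wells without compound and 100% = uninfected wells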
Mtb H37Rv: M. tuberculosis H37Rv growth inhibitors, H37Rv strain (AID 1626) | M. tuberculosis H37Rv growth inhibition; higher % means a stronger effect | inhibition, % at 10 µM, or IC50 in µM where a hit was titrated | 220,000 compounds, 0.95% hits;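 active = confirmed in a dose series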;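 also: bacteria incubated seven days before Alamar blue readout; 0% = bacteria only wells and 100% = bacteria with antibiotic wells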
RecA intein inh: Mtb RecA intein splicing inhibition. cell-free RecA intein splicing, fluorescence. inhibition, %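 (about 9 µM by stock and volumes)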. 290,000 compounds, 0.75% hits; in the data active = inhibition above about 30%;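 also: 0% = vehicle wells and 100% = reference inhibitor control wells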
Target sequence (P9WHJ3 whole entry, looked up): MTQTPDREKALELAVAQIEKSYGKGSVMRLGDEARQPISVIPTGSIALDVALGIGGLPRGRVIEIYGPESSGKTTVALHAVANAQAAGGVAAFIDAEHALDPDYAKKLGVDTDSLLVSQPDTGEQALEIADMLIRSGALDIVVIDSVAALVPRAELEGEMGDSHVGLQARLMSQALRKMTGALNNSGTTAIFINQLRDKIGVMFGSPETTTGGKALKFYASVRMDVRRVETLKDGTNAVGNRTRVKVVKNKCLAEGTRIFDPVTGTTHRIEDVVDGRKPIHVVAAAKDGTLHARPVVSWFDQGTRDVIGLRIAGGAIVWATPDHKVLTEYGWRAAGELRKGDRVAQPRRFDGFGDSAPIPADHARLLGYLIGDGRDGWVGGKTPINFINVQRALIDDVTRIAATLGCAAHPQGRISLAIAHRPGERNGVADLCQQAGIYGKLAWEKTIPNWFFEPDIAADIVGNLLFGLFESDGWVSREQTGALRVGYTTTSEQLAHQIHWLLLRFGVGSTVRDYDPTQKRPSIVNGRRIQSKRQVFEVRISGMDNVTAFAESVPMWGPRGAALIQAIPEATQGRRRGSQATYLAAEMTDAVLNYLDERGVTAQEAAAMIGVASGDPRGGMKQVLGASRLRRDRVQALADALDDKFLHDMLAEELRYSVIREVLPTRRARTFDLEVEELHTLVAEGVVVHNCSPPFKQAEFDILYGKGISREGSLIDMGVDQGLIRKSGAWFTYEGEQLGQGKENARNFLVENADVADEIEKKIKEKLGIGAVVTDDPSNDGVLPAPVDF
Mtb bLac sens: beta-lactam sensitization of Mtb H37Rv; inhibition, % at 25 µM; 330,000 compounds, 0.27% hits; M. tuberculosis H37Rv growth with meropenem, percent inhibition; hits of this screen are not shown here; AID 434955;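 active = about 74% or more and at least 40 points above the plate without the antibiotic, then above 30% in a dose series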;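 also: growth measured after seven days incubation then overnight dye step; 0% = bacteria only wells and 100% = bacteria with antibiotic; twin plates without the antibiotic show which effects depend on it; some results filed as inactive read as strong as hits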
Arbovirus inh repeat: also measured in Arbovirus inh; calls as there; inhibition, %; measured here: 10K subset replicate screen; many hits read low in the repeat;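 first of two repeat runs on a subset; 0% = infected and 100% = uninfected wells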
* hit, by the source's call; / = no result given. This is a subset; count on the stated rates, not on these rows.

SMILES	YopH inh	Arbovirus inh	Mtb H37Rv	RecA intein inh	Mtb bLac sens	others
Cc1ccc(N2C(N)=C(C#N)C(c3cccnc3)C3=C2CC(C)(C)CC3=O)cc1 (stereo not given)	28	1	1%	6.2	8
COc1ccc(CN(C)CC(O)COC(c2ccccc2)c2ccccc2)c(OC)c1OC (stereo not given)	/	/	/	4.8	4
Cc1ccc(C(=O)OCc2nnc(-c3ccccc3)o2)s1	/	/	/	3.3	97
Cc1c(N2C(=O)/C(=C\c3cccc4ccccc34)SC2=S)c(=O)n(-c2ccccc2)n1C	-50	-11	-11%	1.2	-12
COc1ccc(C2=Nc3ccc(Br)cc3C(c3ccccc3)N2CC(=O)NN)cc1 (stereo not given)	-14	-19	3%	1.9	4
CCC(CC)NC(=O)CSc1nnc(-c2c[nH]c3ccccc23)o1	/	-11	-3%	0.5	6
CCOc1cc(C2C(C(=O)N3CCOCC3)=C(C)NC3=C2C(=O)CCC3)ccc1O (stereo not given)	9	1	-2%	-6.2	-6
Cn1c(CNC(=O)C(Cc2ccccc2)NC(=O)c2cccc(F)c2)cc(=O)n(C)c1=O (stereo not given)	/	/	/	-3.8	-4
CCC1CCCCN1CCCNC(=O)CNC(=O)Cn1ccc2ccccc2c1=O (stereo not given)	-26	-3	/	-1.0	-3
CS(=O)(=O)NN1C(=O)c2ccccc2NC1c1cc2ccccc2nc1Cl (stereo not given)	-18	-5	-2%	0.2	-6
COc1cc(NC(=O)c2cnc(N)s2)cc(C(=O)Nc2cccc(C(F)(F)F)c2)c1	/	/	11%	27	99
COc1ccccc1N1CCN(C(=O)c2nn(C)c3c2CS(=O)(=O)c2ccccc2-3)CC1	/	/	/	-2.0	-9
CCN(CC)S(=O)(=O)c1cccc(-c2nnc(SC(C)C(N)=O)n2CCc2ccccc2)c1 (stereo not given)	-8	4	-3%	1.1	1
OC(CNCc1ccccc1C(F)(F)F)C(F)(F)F (stereo not given)	/	4	1%	1.0	-4
O=C1/C(=C\c2cc(Br)cc(Br)c2O)SC(=S)N1Cc1ccccc1	/	/	/	1.7	4
Cc1ccc(C(=O)N(CC(=O)NC2CCCC2)c2ccccc2C)s1	/	0	7%	2.6	-3
O=C(Nc1ccccc1)c1cc2c(=O)c3ccccc3oc2nc1C(F)(F)F	-34	11	1%	-3.9	2
CN=C(Nc1ccccc1)SC1CC(=O)N(c2ccc(C(=O)OC)cc2)C1=O (stereo not given)	-17	6	-2%	3.5	-9
CCC(C)(C(=O)NC1CCCCC1)N(Cc1ccco1)C(=O)CC1NC(=O)NC1=O (stereo not given)	-18	9	-5%	6.6	-8	Arbovirus inh repeat=3
O=C(COc1ccccc1)Nc1ccccc1C(=O)NC1CC1	/	/	/	-0.9	2
CCSc1ncc(Cl)c(C(=O)Nc2ccc(S(N)(=O)=O)cc2)n1	/	/	/	1.3	3
O=C(CSc1nnc(-c2ccncc2)n1-c1ccccc1Cl)Nc1ccc(C(=O)O)cc1	/	7	2%	-0.9	-8
CC1(C)C(=O)Nc2ccccc2N1C(=O)CN1C(=O)C(=O)N(C2CCCC2)C1=O	/	-3	4%	-3.9	9
CCCCSc1nnc(-c2ccc(C)cc2)o1	3	-4	73%	2.5	86
CCOc1cc(/C=C/C(=O)OCC(=O)NC2CCS(=O)(=O)C2)ccc1OCc1ccccc1 (stereo not given)	/	3	-1%	-0.4	93
Cc1cc(OCC(=O)N2CCN(c3ccc(F)cc3)CC2)c2c(C)cc(=O)oc2c1	/	/	/	-0.9	8
CC(=O)c1ccc(Cc2cnc(N)s2)cc1	-33	5	9%	1.2	16
O=C(O)C1CC=CCC1C(=O)Nc1ccccc1Cl (stereo not given)	-39	2	-11%	-5.9	-15
COc1ccccc1NC(=O)C1CCCN1C(=O)NCc1ccccc1 (stereo not given)	-27	0	-10%	-0.1	-1
O=C(Nc1ccccc1-c1ccccc1)c1cccs1	/	-4	10%	1.4	6
CCC(=O)Nc1ccc2c(c1)ncn2C	/	4	-4%	-0.7	-5
CCOC(=O)N1CCC(N(C(=O)Nc2ccc(CC)cc2)C(C)CC)CC1 (stereo not given)	-26	3	35%	-1.3	-1
CNC(=O)Cn1c(C)cc(=O)c2cccc(OC)c21	/	/	-14%	-1.0	-1
CCOC(NC(=O)c1ccccc1)C(NC(=O)c1ccccc1)OCC (stereo not given)	8	-8	-2%	-5.6	-1
O=C(CCc1nc2ccccc2s1)N1CCN(S(=O)(=O)c2cccs2)CC1	-25	2	-10%	5.4	-5
N#Cc1ccccc1NC(=S)NC(=O)c1cccs1	/	/	/	1.7	1
Cc1cc(C)n(-c2nc(NCC(C)O)c3c4c(sc3n2)COC(C)(C)C4)n1 (stereo not given)	-8	1	3%	-2.1	12
Cc1c(NC(=S)NC(=O)c2sc3ccccc3c2Cl)cccc1C(=O)O	/	-3	-8%	/	0
O=C(NCCC1CCCC1)C1CCC(=O)N(CCCN2CCCC2=O)C1 (stereo not given)	/	/	/	1.6	1
COc1ccc(/C=N/NC(=O)c2cccnc2)cc1CSc1ccccn1	/	/	4%	2.3	-1
O=C(Cc1ccccc1)N/N=C/C=C/c1ccccc1[N+](=O)[O-]	/	/	-7%	13	-6
CCc1nnc(NS(=O)(=O)c2ccc(NC(=O)CCC(=O)O)cc2)s1	/	/	/	-4.1	6
CCNC(=S)Nc1cccc(NC(=O)c2ccccc2O)c1	/	/	-5%	0.6	-6
COc1ccc(-c2nc(N)c(C#N)c(-c3cccnc3)c2C)cc1	/	/	5%	0.5	-3
Clc1ccc2c(c1)c1cc(Cl)ccc1n2CN1CCOCC1	15	-36	-1%	22	7
Cc1cc(C(=O)COc2nncc3ccccc23)c(C)n1C	-24	2	-1%	0.9	/
CCOC(=O)c1c(C)nc(SCC(N)=O)c(C#N)c1-c1ccccc1	-12	5	9%	4.2	-4
COc1ccc2c(CC(=O)NCc3ccc4c(c3)OCO4)coc2c1	-27	-3	18%	2.2	5
CCN(c1ccccc1)S(=O)(=O)c1nnc(NC(=O)CC(C)C)s1	/	/	/	-1.3	-6
Cc1ccc(NC(=S)NNC(=O)c2nn(C)c(C)c2Cl)cc1	1	-7	/	3.8	-4
CCCCn1c(SCC(=O)NC2CCS(=O)(=O)C2)nnc1-c1ccc(OC)cc1 (stereo not given)	/	/	/	0.7	-16
COc1ccc2nc(NC(=O)c3ccc(NC(=O)C4CCCO4)cc3)sc2c1 (stereo not given)	/	/	/	1.1	-1
COC(=O)c1cc(C(=O)OCC(=O)Nc2ccccc2OC(F)F)cc([N+](=O)[O-])c1	-26	2	1%	-0.1	6
COc1cc(Cl)c(C)cc1NC(=O)CSc1nnc(-c2ccccn2)n1Cc1ccco1	-43	-11	-5%	0.6	-3
N=c1c2c(-c3ccccc3)c(-c3ccccc3)n(Cc3ccco3)c2ncn1Cc1ccccc1	-14	-43	2.7µM*	59*	100
CCn1c(CNC(=O)c2cccc(C)c2)nc2ccccc21	-43	1	8%	2.9	2	Arbovirus inh repeat=-6
CCc1cccc(C)c1NC(=O)CCNC(=O)c1cccc(C)c1	/	/	/	-0.1	-3
O=C(Nc1nc(-c2cccs2)cs1)c1ccc(S(=O)(=O)N2CCCC2)cc1	-18	0	14%	-0.3	2
Cn1ncc(N=Cc2ccccc2O)c1C(=O)Nc1ccccc1	-37	6	-5%	4.3	-3
CCC(NC(=O)CCc1ccccc1)c1ccccc1 (stereo not given)	/	-2	-3%	-1.0	-4

Part of the list above in order of molecular weight, rising.
SMILES	YopH inh	Arbovirus inh	Mtb H37Rv	RecA intein inh	Mtb bLac sens	others
CCC(NC(=O)CCc1ccccc1)c1ccccc1 (stereo not given)	/	-2	-3%	-1.0	-4
CCn1c(CNC(=O)c2cccc(C)c2)nc2ccccc21	-43	1	8%	2.9	2	Arbovirus inh repeat=-6
CCOC(=O)c1c(C)nc(SCC(N)=O)c(C#N)c1-c1ccccc1	-12	5	9%	4.2	-4
COc1ccc2nc(NC(=O)c3ccc(NC(=O)C4CCCO4)cc3)sc2c1 (stereo not given)	/	/	/	1.1	-1
CCCCn1c(SCC(=O)NC2CCS(=O)(=O)C2)nnc1-c1ccc(OC)cc1 (stereo not given)	/	/	/	0.7	-16
N=c1c2c(-c3ccccc3)c(-c3ccccc3)n(Cc3ccco3)c2ncn1Cc1ccccc1	-14	-43	2.7µM*	59*	100
COc1cc(Cl)c(C)cc1NC(=O)CSc1nnc(-c2ccccn2)n1Cc1ccco1	-43	-11	-5%	0.6	-3

Next entries:
SMILES	YopH inh	Arbovirus inh	Mtb H37Rv	RecA intein inh	Mtb bLac sens	others
COc1ccc(Br)cc1C1Nc2cccc3cccc(c23)N1	/	/	/	-2.4	16
Cc1nc2ccccc2c(=O)n1/N=C/c1ccc2ccccc2c1O	/	/	8%	-0.8	9
O=C1N/C(=C/c2cccs2)C(=O)N1Cc1ccc(Br)cc1	/	-9	-7%	-1.1	-1
O=C(OCc1cccc([N+](=O)[O-])c1)c1ccc[nH]c1=O	/	/	/	-3.0	9
CC1CCCCC1NC(=O)CCCc1nc2ccccc2c(=O)[nH]1 (stereo not given)	-19	6	0%	-0.2	/
O=C(c1cccs1)N1CCN(Cc2ccc3c(c2)OCO3)CC1	-18	-8	-5%	-7.2	-14
Cc1ccc(-c2noc(CSc3nnnn3-c3ccccc3)n2)cc1	-35	-2	0%	9.9	12	Arbovirus inh repeat=6
CC(NC(=S)Nc1ccc([N+](=O)[O-])cc1)c1ccncc1 (stereo not given)	/	8	3%	/	3
CCCN1Cc2cccc(C(=O)Nc3cc(OC)cc(OC)c3)c2C1=O	4	3	0%	-4.6	0
CC(=O)C1=C(O)C(=O)N(Cc2cccnc2)C1c1ccc(Cl)cc1 (stereo not given)	-42	3	-11%	-0.2	-8
O=C(CN1CCCC1=O)Nc1ccccc1	-5	14	1%	0.8	-6
O=c1c2ccccc2nc2c3ccccc3c(NCCO)nn12	/	-8	1%	-4.0	1
CC(Oc1ccc(Cl)cc1)C(=O)OCC(=O)Nc1ncc(Cl)cc1Cl (stereo not given)	-18	18	3%	6.2	4
COC(=O)c1c(-c2cccnc2)csc1NC(=O)c1ccc2c(c1)OCO2	/	/	/	-6.6	61
CCOC(=O)Nc1ccc2c(c1)N(C(=O)CCN1CCN(CCO)CC1)c1ccccc1CC2	-11	-1	-11%	-0.3	1

A run of entries from further up:
SMILES	YopH inh	Arbovirus inh	Mtb H37Rv	RecA intein inh	Mtb bLac sens	others
COC(=O)c1c(-c2cccnc2)csc1NC(=O)c1ccc2c(c1)OCO2	/	/	/	-6.6	61
CCOC(=O)Nc1ccc2c(c1)N(C(=O)CCN1CCN(CCO)CC1)c1ccccc1CC2	-11	-1	-11%	-0.3	1

Other records follow:
SMILES	YopH inh	Arbovirus inh	Mtb H37Rv	RecA intein inh	Mtb bLac sens	others
CCCCNC(=O)CS(=O)Cc1nc(-c2cccc(Cl)c2)oc1C (stereo not given)	/	1	-3%	4.7	13	Arbovirus inh repeat=-4
O=C(NCc1cccs1)c1nc2c(nnn2Cc2ccc(F)cc2)c(=O)[nH]1	-37	-1	-8%	2.9	28
NC(=O)C1(N2CCCCC2)CCN(C(=O)c2ccc(-n3cnnn3)cc2)CC1	-34	9	-8%	3.6	-1
CC(C)(C)CC(C)(C)NC(=O)CSCC(=O)Nc1ccc2ccccc2c1	-15	-39	-8%	4.4	86
Cc1ccc(OCCSc2nnc(-c3cccs3)n2C)cc1	-28	-8	0%	1.4	-27
O=C1CC(c2ccccc2F)c2c(c3ccccc3[nH]c2=O)O1 (stereo not given)	/	/	-8%	-4.8	2
O=C(Cn1c(=O)c(=O)n(Cc2ccccc2)c2ccc(Cl)cc21)Nc1cc(F)ccc1F	/	3	5%	0.5	8
Cc1ccc(C(C)NC(=O)C23CC4CC(CC(C4)C2)C3)cc1 (stereo not given)	/	-2	6%	1.6	1
COc1cccc(N2CC(NC(=O)C(=O)c3c(C)[nH]c4ccccc34)CC2=O)c1 (stereo not given)	/	/	/	-1.2	0
Cc1cc(=O)oc2cc(OCC(=O)OCC(=O)N3CCc4ccccc43)ccc12	10	2	0%	-1.4	-4
Cc1ccc(CNC(=O)c2nnc(Cc3ccc(Cl)cc3)o2)cc1	/	/	11%	-3.8	2
COc1ccc(CCn2c(Br)nc3c2c(=O)[nH]c(=O)n3C)cc1	-1	-18	14%	-4.6	2
COc1ccccc1-n1nnnc1SCC(=O)Nc1ccccc1	/	/	/	0.2	2
Cc1cc(-c2ccc(S(=O)(=O)N3CCN(c4ccc(F)cc4)CC3)s2)on1	/	/	/	0.4	-2
CCOC(=O)c1ccc(S(=O)(=O)N2CCN(C(=O)c3nn(C)c(=O)c4ccccc34)CC2)cc1	/	3	6%	0.4	-4
O=C(O)CC(NC(=O)Cc1ccc(Cl)cc1)c1ccco1 (stereo not given)	/	-1	-1%	/	1
CC(C)Oc1cccc(-c2cc(C(=O)N3CCN(c4ncccn4)CC3)c3ccccc3n2)c1	-12	-32	-8%	9.0	8
Cc1ccc(S(=O)(=O)Nc2ccc(S(=O)(=O)N3CCCC3)cc2)cc1	-53	2	-3%	-0.7	-5
COC(=O)c1ccc(-c2nc3cc(Cl)c(N)cc3s2)cc1	-7	-9	-1%	3.4	-7
CCC1CCCCN1C(=O)COC(=O)c1ccc(S(=O)(=O)N2CCOCC2)cc1 (stereo not given)	2	0	0%	0.3	/
